TRPML1 agonist = qHTS for Agonists of the Human Mucolipin Transient Receptor Potential 1 (TRPML1). Mucolipin-1 (Homo sapiens), Q9GZU1. TRPML1-expressing cells, Ca2+ dye fluorescence, FDSS; host cell line not named in the record; reference of the full effect not given here. activation, % (concentration not given with the values). hit rate 0.12% among 410,000. AID 624414, 2012; in the data active = activation above about 50%; inconclusive = about 30% to 50%; inactive = below about 30%; also: 0% is about no effect; the text of the record puts the active cut at 80%
Target sequence (Q9GZU1 whole entry, looked up): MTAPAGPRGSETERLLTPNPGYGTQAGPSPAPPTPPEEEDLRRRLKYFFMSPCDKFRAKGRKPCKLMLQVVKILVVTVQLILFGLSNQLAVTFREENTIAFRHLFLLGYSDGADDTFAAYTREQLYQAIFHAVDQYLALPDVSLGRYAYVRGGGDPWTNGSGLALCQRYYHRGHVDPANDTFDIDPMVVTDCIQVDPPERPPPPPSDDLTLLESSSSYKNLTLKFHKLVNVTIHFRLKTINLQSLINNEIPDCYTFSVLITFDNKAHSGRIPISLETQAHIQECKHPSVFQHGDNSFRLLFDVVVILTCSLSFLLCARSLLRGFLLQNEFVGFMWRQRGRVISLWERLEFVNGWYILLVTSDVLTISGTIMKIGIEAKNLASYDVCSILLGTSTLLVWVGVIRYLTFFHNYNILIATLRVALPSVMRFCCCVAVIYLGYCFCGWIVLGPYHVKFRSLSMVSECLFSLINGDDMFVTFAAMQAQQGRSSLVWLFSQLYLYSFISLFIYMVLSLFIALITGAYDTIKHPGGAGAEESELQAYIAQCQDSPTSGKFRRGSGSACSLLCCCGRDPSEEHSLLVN
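In this qHTS format, compounds were pin-transferred onto Ca8-dye-loaded TRPML1-DL cells induced with Tet overnight, and intracellular Ca2+ fluorescence was recorded kinetically for 110 s after a 10 s baseline. A subsequent 4uM final 54-4 (EC80) addition followed by a second 110 s read served as the antagonist phase.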
D2 PAM = Beta-Arrestin HTS for Positive Allosteric Modulators of the Human D2 Dopamine Receptor: Potentiators. potentiation, % (concentration not given with the values). D(2) dopamine receptor (Homo sapiens), P14416. DiscoveRx D2 beta-arrestin cells, luminescence, 90 min; 100% = 57 uM dopamine signal. hit rate 0.23% among 360,000; active = potentiation of 50% or more; inconclusive = 30% to 50%; inactive = 30% or less;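 also: compound concentration not given in the record; tested on top of an EC20 dose of dopamine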
Target sequence (P14416 whole entry, looked up): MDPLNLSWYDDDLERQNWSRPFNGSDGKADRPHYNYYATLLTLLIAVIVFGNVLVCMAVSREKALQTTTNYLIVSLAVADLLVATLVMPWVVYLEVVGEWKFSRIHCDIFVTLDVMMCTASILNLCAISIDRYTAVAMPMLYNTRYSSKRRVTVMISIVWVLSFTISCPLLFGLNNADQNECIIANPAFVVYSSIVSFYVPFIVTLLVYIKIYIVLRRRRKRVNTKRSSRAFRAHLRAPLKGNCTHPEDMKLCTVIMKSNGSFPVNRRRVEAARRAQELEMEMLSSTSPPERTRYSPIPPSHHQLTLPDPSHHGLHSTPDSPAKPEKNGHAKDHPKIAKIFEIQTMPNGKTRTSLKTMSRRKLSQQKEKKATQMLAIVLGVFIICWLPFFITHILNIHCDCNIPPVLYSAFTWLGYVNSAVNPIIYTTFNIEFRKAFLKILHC
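PathHunter beta-arrestin assay in DiscoveRx D2 cells. Compounds were added with an EC20 of dopamine (50 nM final) for 90 min at 37 deg C. Luminescence was read 1 h after detection reagent, with 57 uM dopamine as the EC100 control.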
Six1-Eya2 blk = qHTS Assay for Inhibitors of the Six1/Eya2 Interaction; Homeobox protein SIX1 (Homo sapiens) + Protein phosphatase EYA2 (Homo sapiens), …; AlphaScreen GST-Six1/His-Eya2 binding, biochemical; stronger effect = lower value; control for the full effect not named in the record; activity change, % (no concentration beside the values); hit rate 0.56% among 360,000; in the data active = activity change below about -65%; inconclusive = about -30% to -65%; inactive = above about -30%; also: % is scaled to controls: 0 for no effect and ±100 for the full control effect; compound concentration not given in the record
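AlphaScreen luminescence read after one hour at 37 °C in darkness. Pin-transferred compounds met GST-Six1 and His-Eya2 protein (5X stock 250 nM/500 nM) plus glutathione donor and Ni-chelate acceptor beads (5X, 50 ug/mL).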
PINK1 modulator = A Quantitative High throughput Screen to Identify Chemical Modulators of PINK1 Expression; PINK1 immunofluorescence, high-content cytometry, 24 h; Potency, µM (titrated, usually from 76.6 µM), without a hit: top-dose activation (PINK1 increase), most hits filed as activators; hit rate 0.2% among 410,000; active = well fitted activation curve with a large enough effect; inconclusive = small, poorly fitted or top-dose-only effect; inactive = flat fitted curve, though single readings scatter; cell line not stated here;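 also: potency is read from the fitted curve at half-maximal effect; % of control where 0% means no effect; nearly all actives have a fitted effect of over 65% in size; a mitochondrial uncoupler was the plate control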
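Readout is PINK1 immunofluorescence, quantified alongside mitochondrial, cell and nuclear markers by laser-scanning microplate cytometry. Cells from a stable line were exposed to compound titrations (5 concentrations) for 24 hours, with CCCP controls.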
D2 agonist = Beta-Arrestin HTS for Positive Allosteric Modulators of the Human D2 Dopamine Receptor: Agonists; DiscoveRx PathHunter D2 beta-arrestin, luminescence, 90 min; 100% = 57 uM dopamine signal; D(2) dopamine receptor (Homo sapiens), P14416; AID 624465, 2012; activation, % (test concentration not listed); hit rate 0.084% among 360,000; in the data active = activation above about 40%; inconclusive = about 15% to 40%; inactive = below about 15%; also: compound concentration not given in the record; the text of the record calls up to 30% inactive
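DiscoveRx PathHunter D2 beta-arrestin cells (2,100/well) attached overnight, then compound-stimulated 90 min at 37 C in HBSS/10 mM HEPES/0.1% Tween-20 buffer; beta-galactosidase complementation read by luminescence after 1 h at ambient temperature. Dopamine 57 uM final (EC100) as control.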
TRPML1 inh = qHTS for Inhibitors of the Human Mucolipin Transient Receptor Potential 1 (TRPML1); Mucolipin-1 (Homo sapiens), Q9GZU1; TRPML1-inducible cells, Ca2+ dye fluorescence, FDSS; stronger effect = lower value; inhibition of EC80 agonist-evoked calcium signal; activity change, negative = inhibition, % (no concentration beside the values); hit rate 0.02% among 390,000; in the data active means activity change below about -50%; inconclusive means about -30% to -50%; inactive means above about -30%;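 also: stimulus is agonist 54-4 at its EC80 concentration; % is scaled to controls: 0 for no effect and ±100 for the full control effect; compound concentration not given in the record; the text of the record puts the active cut at -80%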
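Tet-induced TRPML1-DL cells loaded with Ca8 no-wash calcium dye were read kinetically on FDSS. Compound addition was followed by EC80 agonist 54-4 (4 uM final); inhibition was read over 110 s.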
* = called active by the depositor; ? = inconclusive; nt = not tested or not shown; & = joins results of further samples; [ ] = remark or other dose.

SMILES	TRPML1 agonist	D2 PAM	Six1-Eya2 blk	PINK1 modulator	D2 agonist	TRPML1 inh
Cc1cccc(N2C(=O)c3ccc(C(=O)Nc4cccc(C(=O)O)c4)cc3C2=O)c1	-0.2	-4.7	-2.9	-0.8%	-3.2	13.5
CC1C=CCC2C(=O)N(c3cccc(C(=O)N4CCCCCC4)c3)C(=O)C12 (stereo unspecified)	0.0	-12.1	0.1	4.5%[38.3 µM]	-1.6	9.2
CCc1cc(CNC(=O)C2CCC(=O)N(Cc3ccccc3F)C2)on1 (stereo unspecified)	-0.6	-7.4	-1.2	0.7%	-2.2	-7.2
CC1Cc2ccccc2N1C(=O)CSc1nn2c(=O)c(C(C)(C)C)nnc2s1 (stereo unspecified)	0.7	-0.1	0.1	-0.2%	1.4	23.7
COc1ccc(NC(=O)C2=CC(c3ccc(OC)c(OC)c3)=NS(=O)(=O)N2C)cc1	0.7	-4.8	-20.8	1.8%	-4.9	11.7
CCOC(=O)c1cccc(NC(=O)CCc2nnc3ccc(N4CCN(C)CC4)nn23)c1	-0.9	-0.1	5.1	-0.2%	-0.3	29.5
S=C1NC[C@H](Cc2ccccc2)N1CCCCC1CCCCC1	-0.6	-14.6	-9.3	-0.4%	-3.9	-0.1
COc1ccc(C(=O)CC2(O)C(=O)N(Cc3cccc(C(F)(F)F)c3)c3ccccc32)cc1 (stereo unspecified)	5.6	nt	nt	6.0%	nt	13.8
O=C(C[C@H]1C/C=C\C[C@H](NC(=O)OCC2c3ccccc3-c3ccccc32)C(=O)OC[C@@H]2CCCN2C1=O)NCCO	0.1	-4.8	6.6	1.0%	0.1	-3.0
COc1cc2c(cc1OC)C(C)N(S(=O)(=O)c1cn(C)cn1)CC2 (stereo unspecified)	-1.0	-6.1	-11.4	3.1%	-3.7	12.8
COc1ccc2oc(C(=O)NCc3ccccc3CN3CCCC3)c(C)c2c1	0.1	-12.5	3.3	0.8%	-7.8	3.3
Oc1oc(-c2ccc(Br)cc2)nc1/C=N/c1ccccn1	-0.5	-3.1	3.5	2.5%	-1.5	43.9
CCOc1ccc(Nc2nc3c(c(=O)[nH]2)CCCC3)cc1	1.1	-2.1	-3.6	-0.8%	0.1	32.2
Cc1c(Cl)cccc1NC(=O)CSc1ncnc2c1cnn2CCc1ccccc1	-0.3	2.5	1.7	13.6%	-2.7	31.4
CCCC(=O)n1nc(-c2ccco2)nc1SCc1ccccc1	3.9	0.7	-7.5	3.5%	-2.3	15.0
Cc1cccc(-n2c(=O)c3c(c4cc(C)ccc4n3C)n(CC(=O)NCCC3=CCCCC3)c2=O)c1	2.4	nt	nt	3.5%	nt	44.9
Cc1ccnc(NC(=O)Nc2ccc(F)cc2)c1	-0.7	1.4	-6.1	1.2%	-2.5	3.9
Nc1nonc1-n1nnc(C(=O)N/N=C/c2ccc(OCc3ccccc3F)cc2)c1CNc1ccccc1	0.7	-3.0	-0.6	4.7%	4.7	11.9
C[C@H](CO)N1C[C@H](C)[C@@H](CN(C)C(=O)NC2CCCCC2)Oc2ccc(NS(=O)(=O)c3ccc(F)cc3)cc2C1=O	0.0	-9.5	-0.5	-0.4%	-2.9	-15.7
CC(C)c1ccc(S(=O)(=O)N2CCN(C(=O)C3CCCCC3)CC2)cc1	-1.9	-6.7	-0.9	-1.1%	-1.8	9.4
O=C(NCC1CCCO1)C1CC(=O)N(C2CCCC2)C1 (stereo unspecified)	0.5	11.1	1.2	3.3%[38.3 µM]	-1.4	10.1
COc1cc(C2c3sc(=O)[nH]c3SC3C(=O)N(c4ccc(C)cc4)C(=O)C32)ccc1O (stereo unspecified)	-0.1	-9.0	-5.7	1.3%	-2.1	0.6
CC(=O)c1cc2c(cc1N/C(=N/S(=O)(=O)c1ccc(Br)cc1)c1ccccc1)OCO2	0.1&-0.3	3.7	3.1	2.1%&7.0%	1.3	7.8&-10.9
CC1(C)CC(=O)C(C=NCCN2CCN(C(=O)c3ccc(Br)cc3)CC2)=C(O)C1	0.6	-16.6	6.6	0.6%	-0.4	3.7
O=C(CCSCc1cccc(Cl)c1)NCCc1ccccc1	0.9	-13.4	-2.8	-0.6%	-0.9	0.9
COc1ccc(Nc2c3c(nc4nncn24)CCC3)cc1Cl	-1.1	nt	nt	4.1%	nt	31.4
Cc1csc2ncc(C(=O)NCc3ccco3)c(=O)n12	0.4	-0.8	-6.3	?	-3.4	-0.7
CCOC(=O)c1ccc(NC(=O)c2ccc(NC(=O)c3ccccc3)cc2)cc1	0.8	-15.7	3.8	8.2%[38.3 µM]	-2.3	-8.3
CC(=O)N1CCC(C(=O)Nc2ccccc2)(N(Cc2ccccc2)C(=O)c2cccnc2)CC1	0.3	-16.8	14.8	-0.7%	-4.1	32.0
C=CCOn1c(=O)c(-c2ccc(C)cc2)[n+]([O-])c2ccccc21	-1.3	-5.9	-0.4	2.2%	0.2	13.8
O=C(CSc1nnc(CNC(=O)c2ccco2)o1)Nc1ccc(Cl)cc1	-0.7	-4.3	0.0	-0.7%	-2.8	4.1
NC1=NC(c2cn(-c3ccccc3)nc2-c2cccs2)n2c(nc3ccccc32)N1 (stereo unspecified)	0.4	21.2	-0.6	-2.0%	-0.7	12.6
Cc1noc(C)c1COc1ccccc1C(=O)N1CCN(S(=O)(=O)c2ccc(F)c(F)c2)CC1	0.6	1.4	7.4	-0.4%	-1.7	-11.6
O=C(NC1CC2CCCC(C1)N2C(=O)Nc1ccccc1)c1ccccc1 (stereo unspecified)	0.5	-4.8	-3.5	1.6%	0.9	14.0
CCN1C(=O)c2cccc3c(S(=O)(=O)Nc4ccc(O)c(C(=O)O)c4)ccc1c23	-0.5&-0.2	-1.7	?	0.6%&1.2%	-3.0	-13.1&21.7
CC(=O)Nc1ccc(S(=O)(=O)Nc2nc3c(s2)CCCC3)cc1	0.2	-7.7	-3.4	-0.1%	-4.0	21.1
N/C(=N\OC(=O)CCCN1C(=O)c2ccccc2C1=O)c1ccccn1	0.3	-0.5	4.5	-0.1%	0.7	-15.9
C=CCn1c(CNc2ccc(C)cc2)nnc1SCC(=O)N/N=C/c1ccc(O)cc1O	1.1	-2.4	-86.1*	-5.0%	0.6	2.8
COc1ccc(C2=CC(c3cc(OC)c(OC)c(OC)c3)NC(=S)N2)cc1 (stereo unspecified)	-0.4	15.5	-1.9	10.6%	3.8	-20.3
CCN(C(=O)CSc1nnc(-c2ccc(F)cc2)c2ccccc12)C1CCS(=O)(=O)C1 (stereo unspecified)	-0.1	-16.0	-4.1	2.3%	-4.2	-13.6
CC(O)(c1ccccc1)c1nc(-c2cc3ccccc3o2)cs1 (stereo unspecified)	-0.1	-4.2	-1.6	13.0%	2.3	nt
Cc1csc2nc(COC(=O)c3cccc(NC(=O)COc4ccc(Cl)cc4)c3)cc(=O)n12	3.2	nt	nt	0.4%	nt	-8.1
COc1ccc(NC(=O)C(=O)NCCCO)cc1Cl	-0.4	-2.1	13.8	5.7%	-3.8	1.4
COc1ccc(S(=O)(=O)N2CCCCC2)cc1NS(=O)(=O)c1cc(Cl)ccc1Cl	-0.2	5.3	11.3	2.9%	-4.6	3.4
CCONC(=NC)c1nonc1N	-0.2	-3.1	-0.5	-0.8%	-0.2	-3.1
Cc1cccc(CN2CCC(CNC(=O)CSc3cc(=O)n(C)c4cc(Cl)ccc34)CC2)c1	-0.7	-2.2	0.9	-0.9%	-0.1	-4.1
Cc1ccc(NC(=O)c2c(C)nc3sc(C(=O)Nc4ccc(F)cc4)c(N)c3c2-c2ccc(C)o2)c(C)c1	0.8	nt	nt	0.0%	nt	19.8
CC(C)(C)NC(=O)NC(=O)COC(=O)CCC1CCCC1	1.3	-3.9	4.1	?	2.2	1.6
COC(=O)C(N)Cc1ccc(Cl)cc1 (stereo unspecified)	-0.6	-2.0	2.0	-0.3%	-6.0	2.9
CC(C(=O)NC1CCCC1)N(Cc1ccco1)C(=O)c1snc(C(=O)NC2CCCC2)c1N (stereo unspecified)	2.0	-3.9	1.8	nt	1.1	8.8
COC(=O)C1N[C@@H]([C@@H](NC(=O)COc2ccccc2)C(=O)NCc2ccsc2)SC1(C)C (stereo partly specified)	-1.0&-1.0	0.4	6.2	-0.5%	2.6	-7.8
CN(C)S(=O)(=O)c1ccc(Cl)c(C(=O)NNC(=O)Cn2ccc(C(F)(F)F)n2)c1	0.2	-16.9	-10.9	1.4%	-4.8	4.6
Cc1ccc(S(=O)(=O)NCCC(=O)NCCOc2ccccc2)cc1	-1.3	24.0	6.8	1.3%	-1.8	11.0
CCCN(CCC)CCCNC(=O)c1cc2c(-c3ccc(OC)c(OC)c3)nn(C)c2s1	1.6&0.1	-8.2	?	2.0%&1.7%	0.6	23.1&37.8
Cc1cc(C)cc(N2C(=O)CS(=O)(=O)C23C(=O)N(C)c2ccccc23)c1 (stereo unspecified)	0.8	nt	nt	-5.4%	nt	-23.6
CSC1=NCCN1C(=O)c1cccc(C(F)(F)F)c1	-0.3	-1.8	4.6	-0.7%	-0.8	7.7
COc1ccc(-n2c(=O)cc(N3CCN(c4ccccc4)CC3)[nH]c2=O)cc1	-0.4	-11.2	18.3	2.2%	-1.6	-6.2
c1ccc(CN2CCC3CC2c2ccc(N4CCOCC4)cc23)cc1 (stereo unspecified)	0.0	-7.8	-12.0	2.7%	-5.6	-12.4
Cc1cc(C)c2c(N)c(C(=O)N/N=C/c3cccnc3)sc2n1	0.2	3.2	?	3.4%	9.0	24.1
CN(C)S(=O)(=O)c1ccc2c(c1)N(CC(=O)Nc1ccc(OC(F)(F)F)cc1)C(=O)CS2	1.7	nt	nt	3.0%	nt	9.6
Cc1cc(-c2ccc(NC(=O)[C@@H]3CCCC[C@@H]3C(=O)O)c(C)c2)ccc1NC(=O)[C@@H]1CCCC[C@@H]1C(=O)O	0.2	-0.8	5.9	-0.4%	-3.3	5.2
O=C(OC1CCOC1=O)c1cc(-c2cccc(Br)c2)nc2ccccc12 (stereo unspecified)	0.8	-2.7	-3.0	0.5%	-4.1	-4.6

With a hit mark in Six1-Eya2 blk (from the list above):
smiles	D2 PAM	Six1-Eya2 blk	PINK1 modulator	D2 agonist	TRPML1 inh
C=CCn1c(CNc2ccc(C)cc2)nnc1SCC(=O)N/N=C/c1ccc(O)cc1O	-2.4	-86.1*	-5.0%	0.6	2.8

From PubChem BioAssay
